# Bioassay records: PubChem BioAssay, Broad Institute
# Yeast UUG start – alters start codon recognition fidelity in yeast | S. cerevisiae UUG-firefly luciferase reporter, luminescence/redox ratio | activity score, % at 18.7 µM | AID 602363 | hit rate 0.13% among 350,000;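 active = replicate mean at a twofold rise or more, about +100% in these data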;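 note: firefly luciferase made from a UUG start codon reports start codon fidelity; reporter light over untreated wells divided by growth signal over untreated wells; some hits fall short of that in this replicate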
# Active calls of the source: *. This is a subset (hit frequency here may not be typical).
canonical_smiles,Yeast UUG start
C[C@@H]1CN([C@@H](C)CO)C(=O)c2cccc(NS(=O)(=O)c3cccs3)c2O[C@@H]1CN(C)Cc1ccc(C(=O)O)cc1,-2.3
COc1ccccc1C#Cc1ccc2c(c1)[C@@H]1[C@@H](CCN1C(=O)c1ccccc1)[C@@H](CO)N2,-8.4
OC[C@@H]1Nc2ccc(-c3ccccc3)cc2[C@H]2[C@@H]1CCN2Cc1ccc(F)cc1,-7.8
COc1ccccc1-c1ccc([C@H]2[C@@H](CO)N3CCCCN(Cc4ccncc4)C[C@@H]23)cc1,-13.8
O=C(c1ccncc1)N1CCCCN2[C@@H](CO)[C@H](c3ccc(-c4ccccc4)cc3)[C@@H]2C1,-4.4
COCC(=O)N1[C@@H]2c3ccc(C4=CCCC4)c(=O)n3C[C@@H]2[C@@H](CO)[C@@H]1C(=O)N1CCCCC1,25.3
Cc1ccccc1-c1ccc([C@@H]2[C@H]3CN(S(=O)(=O)c4cn(C)cn4)CCCCN3[C@H]2CO)cc1,35.4
O=C(NC[C@@H]1[C@H](c2ccccc2)[C@H](CO)N1C(=O)C1CCC1)NC1CCCC1,-6.3
CC(C)(O)C#Cc1ccc([C@H]2[C@@H](CO)N3CCCCN(S(C)(=O)=O)C[C@H]23)cc1,6.5
C[C@H]1CN([C@@H](C)CO)C(=O)Cc2cc(NS(=O)(=O)c3ccc(Cl)cc3)ccc2O[C@@H]1CN(C)C(=O)NC1CCCCC1,14.7
O=C(NC[C@H]1[C@H](c2ccccc2)[C@H](CO)N1CC1CCCC1)C1CC1,-13.1
C[C@@H]1CN([C@H](C)CO)C(=O)c2cc(NC(=O)CCCN(C)C)ccc2O[C@@H]1CN(C)S(=O)(=O)c1ccc(Cl)cc1,36.4
CCC(=O)N1[C@H](CNC(C)=O)[C@H](c2ccc(-c3ccc(F)cc3)cc2)[C@@H]1CO,3.2
O=C(C[C@@H]1CC[C@H]2[C@@H](COC[C@@H](O)CN2Cc2cccc(Cl)c2)O1)N1CCOCC1,-10.2
C[C@@H](NC(=O)C[C@@H]1CC[C@@H]2[C@H](COC[C@H](O)CN2C(=O)Nc2cc(Cl)cc(Cl)c2)O1)c1ccccc1,2.0
O=C(C[C@H]1CC[C@H]2[C@@H](COC[C@H](O)CN2Cc2nccs2)O1)NCc1ccccc1F,2.4
C[C@H](CO)N1C[C@H](C)[C@@H](CN(C)C(=O)c2ccncc2)Oc2cc(C3=CCCC3)ccc2S1(=O)=O,-2.5
C[C@H]1CN([C@@H](C)CO)C(=O)c2cc(NS(=O)(=O)c3cccs3)ccc2O[C@@H]1CN(C)C(=O)Nc1ccc(C(F)(F)F)cc1,-8.2
C[C@H](CO)N1C[C@H](C)[C@H](CN(C)Cc2ccc3c(c2)OCO3)Oc2c(NC(=O)Nc3ccc(F)cc3)cccc2C1=O,0.1
CCC(=O)N1CC[C@H]2[C@@H]1c1cc(-c3ccccc3)ccc1N(C)[C@H]2CO,-12.6
O=C(CN1CCOCC1)N1CCCCN2[C@H](CO)[C@@H](c3ccc(C#Cc4ccccc4F)cc3)[C@@H]2C1,26.3
CO[C@H]1CN(C)C(=O)c2cc(NC(=O)c3ccccc3)ccc2OC[C@@H](C)N(C)C[C@@H]1C,1.3
COCC#Cc1ccc([C@H]2[C@@H](CO)N3CCCCN(S(=O)(=O)c4ccccc4F)C[C@@H]23)cc1,21.8
Cc1noc(C)c1NC(=O)N(C)C[C@H]1Oc2ccc(NS(C)(=O)=O)cc2C(=O)N([C@H](C)CO)C[C@H]1C,-18.7
COCC(=O)N1CC[C@@H]2[C@@H](CO)Nc3ccc(C#Cc4ccccc4)cc3[C@@H]21,2.9
COC(=O)[C@@H]1[C@@H](CO)[C@@H]2Cn3c(ccc(C4=CCCCC4)c3=O)[C@@H]2N1C(=O)C1CCC1,12.6
Cc1ccc(S(=O)(=O)N(C)C[C@H]2Oc3ccc(NC(=O)Nc4ccccc4)cc3C(=O)N([C@H](C)CO)C[C@@H]2C)cc1,23.8
CCNC(=O)Nc1ccc2c(c1)C(=O)N(C)[C@H]1CC[C@H](CC(=O)Nc3ccc(C)cc3)O[C@@H]1CO2,5.9
C[C@@H]1CN([C@@H](C)CO)C(=O)c2cccc(NC(=O)C3CCOCC3)c2O[C@H]1CN(C)Cc1ccc(Cl)c(Cl)c1,1.5
Cc1ccc(S(=O)(=O)Nc2ccc3c(c2)C(=O)N([C@@H](C)CO)C[C@@H](C)[C@H](CN(C)C(=O)Nc2ccccc2)O3)cc1,2.1
COc1ccc(CN(C)C[C@@H]2Oc3ccc(NC(=O)Nc4ccc(F)cc4)cc3C(=O)N([C@H](C)CO)C[C@@H]2C)cc1,3.7
C[C@@H]1CN([C@H](C)CO)C(=O)c2cc(NC(=O)Cc3ccccc3)ccc2O[C@@H]1CN(C)Cc1ccc(Oc2ccccc2)cc1,3.4
C[C@H]1CN([C@@H](C)CO)C(=O)c2cc(NC(=O)c3ccncc3)ccc2O[C@@H]1CN(C)C(=O)Nc1ccccc1,-10.4
C[C@H](CO)N1C[C@H](C)[C@H](CN(C)S(=O)(=O)c2ccc(F)cc2)Oc2ccc(NC(=O)c3ccncc3)cc2CC1=O,-17.1
O=C(c1cccnc1)N1C[C@@H]2[C@H](c3ccccc31)[C@H](CO)N2CC1CCCCC1,2.3
C[C@@H]1CN([C@@H](C)CO)C(=O)c2cc(NC(=O)Nc3ccc(C(F)(F)F)cc3)ccc2O[C@@H]1CN(C)CC1CCCCC1,-1.0
O=C(c1ccncc1)N1CC[C@@H]2[C@@H](CO)Nc3ccc(-c4ccc(F)cc4)cc3[C@@H]21,-12.7
CC(C)NC(=O)N(C)C[C@H]1Oc2ccc(NS(=O)(=O)c3ccc(Cl)cc3)cc2CC(=O)N([C@H](C)CO)C[C@H]1C,-3.9
CC(=O)NC[C@H]1[C@@H](c2ccc(-c3cccnc3)cc2)[C@@H](CO)N1C(=O)C1CC1,1.3
CC(C)NC(=O)N1[C@@H]2CN(C(=O)c3ccncc3)c3ccccc3[C@@H]2[C@@H]1CO,17.3
CN1c2ccc(-c3cccc(F)c3)cc2[C@H]2[C@H](CCN2C(=O)C2CCOCC2)[C@H]1CO,8.2
Cc1noc(C)c1NC(=O)Nc1cccc2c1O[C@H](CN(C)C(=O)NC1CCCCC1)[C@@H](C)CN([C@@H](C)CO)C2=O,-3.0
O=C(NC[C@@H]1[C@@H](c2ccccc2)[C@H](CO)N1Cc1ccccn1)C1CCCC1,35.7
CO[C@@H]1CN(C)C(=O)c2cc(NC(=O)Nc3cc(F)ccc3F)ccc2OC[C@@H](C)N(C(=O)c2cnccn2)C[C@@H]1C,2.3
C[C@@H]1CN([C@H](C)CO)C(=O)c2cc(NS(=O)(=O)c3cccs3)ccc2O[C@@H]1CN(C)S(=O)(=O)c1ccc(Cl)cc1,23.3
C[C@@H]1CN([C@H](C)CO)C(=O)c2cccc(NS(=O)(=O)c3cccs3)c2O[C@H]1CN(C)Cc1ccncc1,-12.9
CCCNC(=O)C[C@H]1CC[C@@H]2[C@H](COc3ccc(NC(=O)c4cccc(Cl)c4)cc3C(=O)N2C)O1,2.6
C[C@H](CO)N1C[C@H](C)[C@@H](CN(C)C)Oc2ccc(NC(=O)Nc3ccc(C(F)(F)F)cc3)cc2C1=O,-3.5
Cn1cnc(S(=O)(=O)N2C[C@@H](O)COC[C@@H]3O[C@@H](CC(=O)NCc4ccc(F)cc4)CC[C@H]32)c1,-7.7
Cc1ccc(S(=O)(=O)N2C[C@@H](O)COC[C@H]3O[C@@H](CC(=O)NCc4ccc(Cl)c(Cl)c4)CC[C@@H]32)cc1,2.5

# (cont.)
canonical_smiles,Yeast UUG start
C[C@@H]1CN([C@H](C)CO)C(=O)Cc2cc(NC(=O)c3ccncc3)ccc2O[C@@H]1CN(C)C(=O)Nc1ccc(F)cc1,-17.4
O=C(Nc1ccccc1F)N1C[C@@H]2[C@H](c3ccccc31)[C@H](CO)N2C(=O)C1CCCC1,-2.8
CO[C@H]1CN(C)C(=O)c2cc(NS(=O)(=O)c3ccccc3)ccc2OC[C@H](C)NC[C@H]1C,5.8
O=C(CN1CCOCC1)N1CCCCN2[C@@H](CO)[C@@H](c3ccc(-c4ccccc4F)cc3)[C@@H]2C1,-18.8
COCC(=O)Nc1ccc2c(c1)C(=O)N(C)C[C@H](OC)[C@@H](C)CN(C(=O)c1cnccn1)[C@H](C)CO2,-8.5
Cc1noc(C)c1S(=O)(=O)Nc1ccc2c(c1)C(=O)N([C@H](C)CO)C[C@@H](C)[C@H](CN(C)Cc1ccc(Oc3ccccc3)cc1)O2,6.2
CO[C@@H]1CN(C)C(=O)c2cc(NC(=O)c3cc(C)on3)ccc2OC[C@@H](C)N(S(=O)(=O)c2ccccc2)C[C@H]1C,13.2
CN1c2ccc(-c3cccc(F)c3)cc2[C@@H]2[C@@H](CCN2C(=O)CC2CC2)[C@@H]1CO,1.7
O=C(Nc1cccc(F)c1)N1C[C@H]2[C@@H](c3ccccc31)[C@H](CO)N2C(=O)Cc1ccccn1,21.4
OC[C@@H]1[C@@H](c2ccc(-c3ccccc3F)cc2)[C@@H]2CN(Cc3ccncc3)CCCCN12,-0.5
CC(=O)N(C)C[C@H]1[C@@H](c2ccc(-c3ccccc3)cc2)[C@@H](CO)N1C(=O)C1CC1,-11.1
C[C@H]1CN([C@@H](C)CO)C(=O)c2cccc(NC(=O)c3ccc(-c4nccs4)cc3)c2O[C@H]1CN(C)C(=O)Nc1ccc(C(F)(F)F)cc1,-0.3
CO[C@H]1CN(C)C(=O)c2cc(NC(=O)Nc3ccccc3)ccc2OC[C@H](C)N(CC2CC2)C[C@H]1C,10.7
COc1cccc(CN2[C@@H]3CN(C(=O)CC(F)(F)F)c4ccccc4[C@@H]3[C@@H]2CO)c1,0.1
COCC(=O)NC[C@@H]1[C@@H](c2ccccc2)[C@@H](CO)N1C(C)=O,10.7
CCC(=O)N1C[C@H](C)[C@H](OC)CN(C)C(=O)c2cc(NC(=O)NC(C)C)ccc2OC[C@H]1C,9.2
C[C@@H]1CN([C@H](C)CO)C(=O)c2cc(NC(=O)Cc3ccccc3)ccc2O[C@@H]1CN(C)Cc1ccc(Cl)c(Cl)c1,36.1
CC(C)NC(=O)N(C)C[C@H]1Oc2ccc(NC(=O)Cc3ccccc3)cc2CC(=O)N([C@H](C)CO)C[C@H]1C,6.7
C[C@@H]1CN([C@@H](C)CO)C(=O)Cc2cc(NC(=O)Cc3ccccc3)ccc2O[C@H]1CN(C)C,0.9
CN1C(=O)c2cc(NC(=O)C3CCCC3)ccc2OC[C@@H]2O[C@H](CC(=O)O)CC[C@@H]21,-10.9

# The closing 4 compounds of the section above come first, to join the parts.
canonical_smiles,Yeast UUG start
C[C@@H]1CN([C@H](C)CO)C(=O)c2cc(NC(=O)Cc3ccccc3)ccc2O[C@@H]1CN(C)Cc1ccc(Cl)c(Cl)c1,36.1
CC(C)NC(=O)N(C)C[C@H]1Oc2ccc(NC(=O)Cc3ccccc3)cc2CC(=O)N([C@H](C)CO)C[C@H]1C,6.7
C[C@@H]1CN([C@@H](C)CO)C(=O)Cc2cc(NC(=O)Cc3ccccc3)ccc2O[C@H]1CN(C)C,0.9
CN1C(=O)c2cc(NC(=O)C3CCCC3)ccc2OC[C@@H]2O[C@H](CC(=O)O)CC[C@@H]21,-10.9
C[C@H](CO)N1C[C@H](C)[C@H](CN(C)S(=O)(=O)c2cn(C)cn2)Oc2ccc(NC(=O)Cn3cnnn3)cc2C1=O,13.3
CO[C@H]1CN(C)C(=O)c2cc(NC(=O)c3cnccn3)ccc2OC[C@H](C)N(C(C)=O)C[C@H]1C,-6.6
CC(C)NC(=O)Nc1ccc2c(c1)C(=O)N([C@H](C)CO)C[C@H](C)[C@H](CN(C)Cc1ccc(C(F)(F)F)cc1)O2,10.0
O=C(NCC1CCCCC1)[C@@H]1[C@@H](CO)[C@@H]2Cn3c(ccc(-c4ccc(F)cc4)c3=O)[C@H]1N2,-18.3
CCCNC(=O)N1[C@@H](CO)[C@@H]2c3ccccc3N(C(=O)Nc3cccc(F)c3)C[C@@H]21,3.2
C[C@H]1CN([C@@H](C)CO)C(=O)c2cccc(NS(=O)(=O)c3ccc(F)cc3)c2O[C@@H]1CN(C)C,-5.7
COc1ccc(-c2ccc3c(c2)[C@@H]2[C@@H](CCN2C(=O)c2ccc4c(c2)OCO4)[C@@H](CO)N3C)cc1,-14.5
C[C@H]1CN([C@@H](C)CO)C(=O)c2cccc(NC(=O)NC3CCCCC3)c2O[C@@H]1CN(C)S(=O)(=O)c1ccccc1,12.6
CCCC#Cc1ccc([C@H]2[C@H](CO)N3CCCCN(CC4CC4)C[C@@H]23)cc1,-6.3
O=C(CC(F)(F)F)N1C[C@@H]2[C@H](c3ccccc31)[C@@H](CO)N2CC1CCCCC1,1.1
CO[C@H]1CN(C)C(=O)c2ccc(NC(=O)C3CC3)cc2OC[C@@H](C)N(C(=O)NC(C)C)C[C@H]1C,-1.7
Cc1ccc(OC(=O)N(C)C[C@@H]2OCc3ccccc3-c3ccccc3C(=O)N([C@@H](C)CO)C[C@H]2C)cc1,13.0
CC(C)NC(=O)Nc1cccc2c1O[C@@H](CN(C)S(=O)(=O)c1ccccc1)[C@@H](C)CN([C@H](C)CO)C2=O,7.8
COc1cccc(S(=O)(=O)Nc2ccc3c(c2)C(=O)N(C)C[C@H](OC)[C@H](C)CN(C(=O)Cc2cccnc2)[C@H](C)CO3)c1,6.0
CO[C@H]1CN(C)C(=O)c2ccc(NC(=O)C3CCCC3)cc2OC[C@@H](C)N(CC2CC2)C[C@H]1C,5.4
CO[C@@H]1CN(C)C(=O)c2cc(NC(=O)c3cnccn3)ccc2OC[C@@H](C)N(CCC(F)(F)F)C[C@H]1C,0.9
O=C(c1cccnc1)N1C[C@@H]2[C@H](c3ccccc31)[C@@H](CO)N2C(=O)C1CCOCC1,116.7*
